E coli growth = E. coli growth inhibition; 330,000 tested, 0.21% active; Escherichia coli growth, OD600, 23 h; hits give low values; OD600 absorbance (test concentration not listed); AID 1053175;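 active = OD600 absorbance below the run mean of sample wells minus 3.6 SD, in any replicate, cut at about 0.56 in these data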;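 also: stock transfer was 300 nL into about 60 µL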
T cruzi inh = blocks replication of Trypanosoma cruzi; T. cruzi beta-gal in NIH3T3, luminescence, 90 h; inhibition, % (test concentration not listed); 300,000 tested, 1.4% active;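 active = mean inhibition across valid replicates above about 55%, limit read from the data; inconclusive = mean below that limit but half or more replicates reach it; inactive = mean below it, under half of replicates reach it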;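 also: signal also drops with host cell toxicity which is not excluded here; 0% = plate median of DMSO wells and 100% = zero luminescence signal; higher percent means less beta-gal luminescence so fewer parasites; stock transfer was 50 nL into about 50 µL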
AF4-AF9 inh = blocks AF4 peptide binding to human AF9 | P42568 | AlphaScreen, biotin-AF4 peptide binding to FLAG-AF9 | inhibition, % at 10 µM | 350,000 tested, 0.47% active;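 active = every replicate reaching a set inhibition limit, whatever the replicate mean, cut at about 25% in these data; inconclusive = mean inhibition reaches that limit but some replicates miss it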;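 also: 0% = plate neutral control median and 100% = total signal loss; the record names both 10 and 1 µM as test concentration; the first replicate is given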
Target sequence (P42568 whole entry, looked up): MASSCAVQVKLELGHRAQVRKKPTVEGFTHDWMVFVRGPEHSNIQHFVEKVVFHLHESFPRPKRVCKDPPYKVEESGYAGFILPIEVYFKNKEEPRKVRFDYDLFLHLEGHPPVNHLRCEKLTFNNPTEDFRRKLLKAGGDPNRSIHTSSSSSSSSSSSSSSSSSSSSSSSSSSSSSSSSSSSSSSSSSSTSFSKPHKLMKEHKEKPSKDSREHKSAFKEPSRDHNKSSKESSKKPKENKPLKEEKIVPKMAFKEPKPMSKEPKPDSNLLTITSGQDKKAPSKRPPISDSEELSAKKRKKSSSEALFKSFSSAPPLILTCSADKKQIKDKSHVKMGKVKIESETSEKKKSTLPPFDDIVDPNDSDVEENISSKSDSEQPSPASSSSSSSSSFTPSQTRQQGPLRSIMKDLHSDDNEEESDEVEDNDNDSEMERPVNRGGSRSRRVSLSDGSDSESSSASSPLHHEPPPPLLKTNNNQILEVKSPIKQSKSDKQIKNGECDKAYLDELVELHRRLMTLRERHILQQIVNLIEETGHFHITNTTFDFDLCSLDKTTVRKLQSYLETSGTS
Beta cell apopt = blocks beta cell apoptosis; INS-1E cytokine-induced death, ATP luminescence, 48 h; percent of positive-control rescue, neutral wells zero; protection from apoptosis, % (no concentration beside the values); 300,000 tested, 0.8% active; AID 435005;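 active = all replicates at 75% or more, or half of them and the mean; inconclusive = half reach 75% but not the mean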;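 also: 0% = cytokine-treated negative control wells and 100% = positive control rescue; higher means more ATP so stronger rescue from cytokine killing; wells of about 40 µL received 100 nL stock; the first replicate is given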
UCH37 DUB inh = human UCH37 deubiquitinating enzyme inhibition; inhibition, % (no concentration beside the values); 330,000 tested, 0.33% active; purified proteasome/UCH37, Ub-AMC cleavage fluorescence; AID 588478;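 active = mean of two replicates above 20%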;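 also: 0% = compound-free wells with enzyme and 100% = wells lacking proteasome; stock transfer was 100 nL into about 20 µL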
Target sequence (Q9Y5K5 whole entry, looked up): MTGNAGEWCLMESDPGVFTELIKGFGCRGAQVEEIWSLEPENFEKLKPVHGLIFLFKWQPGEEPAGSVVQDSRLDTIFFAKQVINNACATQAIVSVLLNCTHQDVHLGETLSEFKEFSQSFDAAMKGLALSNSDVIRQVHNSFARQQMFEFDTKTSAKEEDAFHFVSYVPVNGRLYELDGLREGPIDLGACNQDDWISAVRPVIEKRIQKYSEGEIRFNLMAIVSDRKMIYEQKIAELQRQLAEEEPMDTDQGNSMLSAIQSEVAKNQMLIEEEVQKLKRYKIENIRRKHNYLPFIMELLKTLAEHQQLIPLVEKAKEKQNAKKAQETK
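assay system = human UCH37 enzyme supplied as purified proteasome complex | amount = proteasome at 0.15 nM in the dispensed enzyme solution | schedule = 30 min compound-proteasome preincubation then 25 min substrate reaction, room temperature | measured by = fluorescence, ex 355 nm, em 460 nm | benchmarks = no-proteasome wells (full inhibition) and compound-free wells (no inhibition)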
Bfl-1 A1 inh = inhibitors of the anti-apoptotic protein A1, read as caspase activation. MEF A1-2A-BIM cells, Caspase-Glo 3/7 luminescence, 3 h; percent of clofoctol response, vehicle zero. caspase activation, % (no concentration beside the values). 330,000 tested, 0.066% active. AID 2462;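 active = over half of replicate activation scores above 10%, or exactly half above 10 with the replicate mean above 10; inconclusive = replicate mean below 10 yet half the replicates above 10; inactive = over half of replicates below 10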;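 also: wells of about 30 µL received 50 nL stock; many hits fall short of the cut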
FGF22 binding = binders of recombinant human FGF22 by thermal shift; 340,000 tested, 1.5% active; SYPRO orange fluorescence; percent of sucrose octasulfate shift, DMSO zero; AID 651658; calls only at 9.99 µM;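 active = melting point raised past a set limit in the mean and every replicate; inconclusive = no clear call; three in four hits are not shown here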
Target sequence (Q9HCT0 whole entry, looked up): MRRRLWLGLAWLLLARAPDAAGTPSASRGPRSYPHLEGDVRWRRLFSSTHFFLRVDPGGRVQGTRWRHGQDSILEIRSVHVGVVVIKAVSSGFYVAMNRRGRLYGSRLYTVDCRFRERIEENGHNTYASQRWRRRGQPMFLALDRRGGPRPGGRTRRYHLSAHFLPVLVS
rRNA inh HTS = selective bacterial rRNA inhibition in E. coli; GFP signal change (wild-type ribosome), % (no concentration beside the values); E. coli WT GFP vs humanized-ribosome RFP mutants, fluorescence, 24 h; hits give low values; DMSO median 0, no signal -100; 350,000 tested, 1.6% active;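 active = significant combined selectivity score with lowered wild-type GFP, culture density cut under 30%, mutant RFP and density less affected; inactive = any of these conditions unmet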; also: one replicate is shown; some compounds called inactive have numbers as strong as hits
rRNA inh HTS OD600 = also measured in rRNA inh HTS; calls as there; OD600 change, %; measured here: OD600 growth;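 optical density of the mix in the first replicate; 0 = DMSO median and -100 = no signal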
rRNA inh HTS RFP = also measured in rRNA inh HTS; calls as there; RFP signal change, %; measured here: RFP humanized mutant strains;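 first replicate; 0 = DMSO median and -100 = no signal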
Numbers without * were called inactive; i = inactive; ? = inconclusive; . = not tested or not shown.

SMILES	E coli growth	T cruzi inh	AF4-AF9 inh	Beta cell apopt	UCH37 DUB inh	Bfl-1 A1 inh	FGF22 binding	rRNA inh HTS	rRNA inh HTS OD600	rRNA inh HTS RFP
CCN(CC)S(=O)(=O)c1ccc2c(c1)nc(SCn1nnc3ccccc3c1=O)n2CC	0.669	17.2	.	-3.8	4.3	0.9	.	.	.	.
COc1ccc(CC(=O)OCC(=O)Nc2ccc(Cl)cn2)cc1	0.711	-19.1	.	-7.2	4.5	0.1	.	.	.	.
COc1ccc(OC)c(S(=O)(=O)NCc2cccnc2)c1	0.744	-10.9	.	.	1.6	-1.0	.	.	.	.
Cc1ccc(-c2cc(C(=O)Nc3nn[nH]n3)c3ccccc3n2)c(C)c1	0.709	-18.9	.	1.0	-7.1	0.4	.	.	.	.
CC1(C)Cc2c(cnn2-c2cccc(F)c2)C(NC(=O)c2csnn2)C1 (centres undefined)	0.717	-7.7	1.6	4.6	1.5	-0.1	i	-2.4	7.1	-1.9
CCN(CC)CCNC(=O)c1cccc(NC(=O)C(=O)c2ccccc2NC(C)=O)c1	0.675	-5.7	-3.3	-0.1	1.9	-0.1	i	4.0	1.6	0.6
Cc1cc(C(=O)OCC(=O)N(C)C2CCS(=O)(=O)C2)c(C)n1-c1ccccc1 (centres undefined)	0.763	-0.9	.	0.9	1.9	1.1	.	.	.	.
CC(C)NC(=O)/C(C#N)=C/c1cccc(NC(=O)c2ccccc2Cl)c1	0.696	-19.4	4.3	3.7	0.3	-0.1	i	-13.0	1.0	-2.2
C(=N\Nc1ccc2nncn2n1)/c1ccco1	.	-4.4	-0.1	3.6	.	-0.1	i	-4.5	-0.3	-3.1
O=C(CCN1CCN(c2ccccc2)CC1)NNC(=S)Nc1ccccc1	0.679	-6.5	-31.4	1.2	3.1	1.0	i	8.3	5.3	-1.5
C#CCNC(=O)C1=C[C@H](c2ccc3c(c2)OCO3)C[C@H](OCCCCO)O1	.	-15.2	-1.9	.	0.7	3.0	i	10.1	8.1	1.9
Cc1ccccc1Nc1nc(N2CCOCC2)nc(N2CCOCC2)n1	0.666	9.0	-1.2	-0.9	2.2	0.2	i	-0.5	-5.5	-2.9
O=C(CSc1nnc(SCc2ccc(Cl)cc2)s1)N1CCN(C(=O)c2ccco2)CC1	0.726	-5.2	.	0.9	1.8	0.9	.	.	.	.
CC1C(O)=C(c2nc3ccccc3[nH]2)C(=N)N1c1ccccc1 (centres undefined)	0.665	-9.3	.	-6.1	-0.5	1.3	.	.	.	.
O=C1C(C=NCCCN2CCOCC2)=C(O)c2ccccc21	0.683	-2.8	.	-4.2	6.1	0.1	.	0.0	10.3	-5.1
COc1cccc(Cn2cnc3c([N+](=O)[O-])c(C)c(C)cc32)c1	0.69	13.1	3.2	.	5.2	-0.2	.	-42.5	-41.1	-8.6
CCC(C)(C)NC(=O)C(c1cccc(OC)c1OC)N(C(=O)CCC(=O)Nc1cc(C)on1)C(C)C (centres undefined)	0.686	-5.6	-0.2	-1.8	-2.0	0.0	i	0.6	-5.4	-1.5
Cc1ccc(NC(=O)CN(C)C(=O)/C=C/c2ccc3c(c2)OCO3)cc1	0.692	.	-1.1	-1.4	-16.7	-1.7	i	-7.9	-9.8	-5.9
Cc1cc(C)nc(SCC(=O)N2CCOCC2)n1	0.661	-14.3	.	-7.8	0.3	0.5	.	.	.	.
C/C(=N/NC(=O)c1sc(=S)n(C)c1C)c1ccccc1	.	4.2	0.3	-5.3	.	-0.1	i	10.7	11.4	1.6
CCN1C(=O)[C@H]2[C@@H](c3ccc(-c4ccc(C(C)=O)cc4)c(OC)c3)N[C@@](Cc3ccccc3)(C(=O)OC)[C@H]2C1=O	.	9.2	1.4	6.8	2.3	-1.9	i	5.8	0.2	-1.9
COC(=O)C1=C[C@@H](C(=O)OC)C2C3=C(C(=O)C24CCCCC4)[C@H](C)n2c(=O)n(C)c(=O)n2[C@@H]3C1 (some centres undefined)	.	0.6	-2.4	-1.3	1.3	2.4	i	-1.1	7.3	0.4
COc1ccc2nc(SCC(=O)c3ccco3)[nH]c2c1	0.666	-11.1	1.1	-19.4	5.5	-1.9	i	5.0	1.4	-7.2
Cc1ccnc(NC(=O)CNC(=O)c2ccc3ccccc3c2)c1	0.674	0.5	-1.2	.	-1.9	-0.2	i	-12.8	-21.8	0.7
Cn1c(NC(=O)c2cc(-c3ccc4c(c3)OCO4)nc3ccccc23)cc(=O)n(C)c1=O	0.673	-10.1	.	11.2	0.7	-1.3	.	.	.	.
Oc1c(Br)cc(CNC2CCCCC2)cc1Br	0.679	.	1.4	.	0.1	.	i	-49.5	-73.8	-14.3
COc1ccc(-n2cc(C#N)c(=O)[nH]c2=O)cc1	0.669	5.4	0.1	.	-2.2	-0.8	i	-0.2	5.8	-1.3
O=C(CSc1nc(O)c(C2CCCCC2)c(=O)[nH]1)Nc1ccc(Cl)cc1	0.713	-7.6	.	-15.6	8.9	0.0	.	.	.	.
O=C(Nc1ccc2c(c1)OCCO2)C1CCCN(S(=O)(=O)c2cccnc2)C1 (centres undefined)	0.744	-5.4	-3.2	0.5	1.2	-0.7	i	-8.3	-10.3	-0.6
Cc1ccc(C(=O)NCCC(=O)N2CCC3(CC2)NCCc2[nH]cnc23)cc1C	0.689	12.3	0.8	0.7	0.9	-1.3	i	-0.5	1.0	-1.4
COc1ccc(O)c(-c2cn[nH]c2-c2cccs2)c1	0.665	-9.2	.	-6.3	3.1	0.2	.	.	.	.
Cc1ccc(Nc2c(O)nc[nH]c2=O)cc1C	0.684	.	-0.3	.	2.6	.	i	6.4	6.8	-3.9
CCn1cc(C(=O)O)c(=O)c2cc(F)c(N3CCN(C(=S)NC(=O)c4ccc(F)c(F)c4)CC3)cc21	0.0705*	-5.1	-2.6	-8.2	-14.7	0.4	i	-59.4	-79.6	-20.0
COc1cccc(NC(=O)Nc2ccc(CC(=O)O)cc2)c1	0.698	-15.8	-0.4	-0.4	-0.4	-2.4	i	19.8	16.2	0.9
COc1ccc(C(=O)Nc2ccc(N3CCCCCC3)cc2)cc1S(=O)(=O)N1CCOCC1	0.678	.	19.2	9.2	3.5	0.4	i	-18.7	-26.4	0.9
O=C(NNC(=S)NCc1ccc(Cl)cc1)c1cccnc1	0.694	-14.1	-1.7	-2.2	2.7	-1.1	i	1.7	5.6	0.8
O=C(NCCc1ccccc1)c1ccc(CS(=O)(=O)c2ccc(Cl)cc2)o1	0.65	2.0	-14.1	5.1	2.1	-0.3	i	-4.7	-5.3	-6.9
O=C(COc1ccccc1)Nc1ccc([N+](=O)[O-])cc1	0.648	3.5	-2.2	-2.9	3.3	-0.1	i	8.0	5.9	8.5
C=C1CCC[C@]2(C)C[C@H]3OC(=O)C(CN(C)CC(OC)OC)[C@H]3CC12 (some centres undefined)	0.689	-6.6	-1.6	-23.1	5.0	-1.4	i	-6.5	-11.1	-0.8
Cc1ccc(-c2csc(NS(=O)(=O)c3cccc(F)c3)n2)o1	0.7	.	-17.0	2.6	1.9	0.2	i	14.1	15.2	12.8
CC(C)CCNC(=O)CN(CC1CCCO1)C(=O)CCC(=O)Nc1nccs1 (centres undefined)	0.711	.	.	-2.9	1.5	-0.4	.	.	.	.
COc1cc(C)ccc1OCC(=O)Nc1nnc(C2CC2)s1	0.665	.	?	-3.6	6.7	1.1	i	2.4	13.9	0.7
COC(=O)c1ccc(NC(=O)Cn2nc(C(=O)Nc3ccc(C)cc3)ccc2=O)cc1	0.741	-21.9	1.1	0.0	4.6	-0.2	i	0.4	4.9	0.0
Cc1ccc(C)c(NC(=O)CN2C(=O)NC(C)(c3ccc4c(c3)OCCO4)C2=O)c1 (centres undefined)	0.684	.	2.3	-0.7	-0.2	-2.5	i	-2.3	5.3	1.7
CC1N(C)c2cc(NC(=O)c3cccs3)c(P(=O)(Nc3ccc([N+](=O)[O-])cc3)N3CCOCC3)cc2C1(C)C (centres undefined)	0.714	63.8*	6.5	23.5	0.2	0.5	i	-0.2	8.8	58.7
CC(C)CC(=O)Nc1ccc(S(=O)(=O)N2CCCC2)cc1	0.678	-9.3	-3.8	-3.7	2.7	0.2	i	6.1	10.2	0.8
CCCOc1ccccc1Cn1c(=O)oc2ccc(C)cc21	0.703	-12.5	.	-8.2	3.5	0.1	.	.	.	.
CCN(c1ccccc1)S(=O)(=O)c1ccc(OC)c(NC(=O)Cn2cnc3c2c(=O)n(C)c(=O)n3C)c1	0.741	22.6	0.5	.	4.0	-0.4	i	-6.7	-6.6	2.4
CCNc1nc(NCC)n2c(SCC(=O)O)nnc2n1	0.707	0.0	.	-7.9	34.1*	0.0	.	.	.	.
COc1ccccc1-c1oc2ccccc2c1C#CC1(O)CCCCC1	.	.	6.6	-5.8	-9.2	-1.2	i	-8.7	-16.6	-4.8
Cc1ccc(-c2cc(C(F)F)n3ncc(C(=O)NN4CCCCC4)c3n2)cc1	0.692	23.4	-7.5	-0.9	2.2	1.6	i	4.5	7.0	-7.9
CNc1ccccc(-c2ccc3cc4c(cc3n2)OCO4)c1=O	0.714	3.4	-5.6	11.3	3.9	1.2	i	-5.8	-1.7	-8.9
CC(C)(C)n1nc2c(c1NC(=O)c1cc([N+](=O)[O-])ccc1Cl)CS(=O)(=O)C2	0.677	-16.3	-0.7	3.8	1.8	-0.5	i	15.3	15.4	-2.7
COc1ccc(CN([C@H](C)CO)S(=O)(=O)N(Cc2ccccc2)[C@H](CO)C(C)C)cc1	.	.	-2.5	-4.9	0.0	0.8	i	-16.2	-29.2	-23.6
O=C(COC(=O)Cc1ccc(F)cc1)NCCc1ccccc1	0.61	-13.0	-3.4	-4.0	1.3	0.2	i	4.3	7.7	3.2
CCCCc1nnc(NC(=O)Cc2ccc(OC)c(S(=O)(=O)N3CCOCC3)c2)s1	0.653	11.1	-2.4	0.2	2.7	1.0	i	0.2	4.0	5.7
O=C(O)C1CSC2(c3ccc(Br)cc3)CCC(=O)N12 (centres undefined)	0.748	-8.4	-0.7	-13.5	5.6	0.0	i	15.8	18.1	1.5
CN(CCc1ccccc1)C1CCCN(S(=O)(=O)N(C)C)C1 (centres undefined)	0.695	38.0	1.0	.	1.0	0.1	i	8.2	14.2	-0.1
O=C(C(=O)N1CCN(c2cccc(Cl)c2)CC1)N1CCCCC1	0.716	-8.8	-1.2	-5.7	-0.4	0.5	i	5.5	-0.7	0.6
O=C(O)CCn1c(SCc2ccccc2)nc2ccccc21	0.629	-19.3	.	8.0	0.7	-1.7	.	.	.	.
O=c1[nH]c2cc(Cl)cc(Cl)c2[nH]c1=O	0.713	-11.7	.	0.7	-33.3	-0.4	.	.	.	.
O=C(NCCN1CCOCC1)/C(=C/c1ccccc1)NC(=O)c1ccccc1	0.668	-5.2	-2.2	0.3	1.5	0.9	i	-0.9	7.1	-1.6
Cc1ccc(-n2c(SCC(=O)NCC3CCCO3)nc3ccccc3c2=O)cc1 (centres undefined)	0.678	.	-0.2	2.0	4.8	1.1	i	11.6	1.3	2.2

From PubChem

Only part of the results is shown. The share of hits here may be higher or lower than overall.
